# Bioassay records deposited in PubChem by National Center for Advancing Translational Sciences (NCATS).
# Rango-impB inh – inhibitors of Rango-importin beta complex formation; Q14974; Rango CFP/YFP FRET sensor + importin beta, 45 min; Potency, µM (top dose mostly 92.2 µM), inactives show at the highest dose inhibition of complex formation; hit rate 0.031% among 340,000; active = rising FRET ratio curve, often small or poorly fitted; inconclusive = mostly compound fluorescence or quenching in the first reads; inactive = flat curves in all reads;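 also: potency is read from the fitted curve at half-maximal effect; 0% = DMSO wells and 100% = buffer wells lacking importin beta; nearly all actives have a fitted effect of over 15% in size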
# Target sequence (Q14974 whole entry, looked up): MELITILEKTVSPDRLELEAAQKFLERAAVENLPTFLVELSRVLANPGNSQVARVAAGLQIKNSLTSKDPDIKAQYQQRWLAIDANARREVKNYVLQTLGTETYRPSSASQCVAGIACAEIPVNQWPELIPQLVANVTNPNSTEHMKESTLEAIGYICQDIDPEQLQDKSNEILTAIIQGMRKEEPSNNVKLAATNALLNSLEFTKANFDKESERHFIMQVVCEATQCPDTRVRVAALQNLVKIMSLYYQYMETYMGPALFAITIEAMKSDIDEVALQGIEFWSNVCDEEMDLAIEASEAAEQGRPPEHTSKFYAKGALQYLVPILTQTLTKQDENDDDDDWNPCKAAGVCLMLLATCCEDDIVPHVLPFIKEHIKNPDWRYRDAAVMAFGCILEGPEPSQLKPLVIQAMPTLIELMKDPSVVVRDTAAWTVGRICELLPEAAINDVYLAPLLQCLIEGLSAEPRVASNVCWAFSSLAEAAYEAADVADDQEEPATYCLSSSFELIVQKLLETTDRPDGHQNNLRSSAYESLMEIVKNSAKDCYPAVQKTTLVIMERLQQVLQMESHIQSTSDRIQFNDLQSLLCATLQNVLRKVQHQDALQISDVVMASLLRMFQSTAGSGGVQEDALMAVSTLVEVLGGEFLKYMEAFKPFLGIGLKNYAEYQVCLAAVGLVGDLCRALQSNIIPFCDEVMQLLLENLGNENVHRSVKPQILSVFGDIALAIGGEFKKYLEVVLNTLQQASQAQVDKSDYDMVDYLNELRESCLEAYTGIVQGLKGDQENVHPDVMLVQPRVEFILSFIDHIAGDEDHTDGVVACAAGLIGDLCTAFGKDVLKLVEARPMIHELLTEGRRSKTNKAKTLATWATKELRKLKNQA
#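 Inhibition scored from the CFP 486 nm/YFP 530 nm FRET ratio 45 min after adding 0.125 microM importin beta to 50 nM Rango biosensor preincubated 5 min with compound (room temperature, PBS with DTT, Tween-20, BSA). No-importin wells as positive control.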
# Rango dissoc inh – inhibition of RanGTP-driven Rango-importin beta dissociation. O95149+P62826. hit rate 0.071% among 340,000. Biochemical FRET Rango-importin beta, RanGTP-induced dissociation. Potency, µM (doses to about 46.1 µM), without a hit: top-dose activity change, negative = inhibition. AID 540253; active means falling FRET ratio curve, often poorly fitted, with flat reads before Ran was added; inconclusive means other falling curves, or compound fluorescence or quenching; inactive means flat or rising ratio curve;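 also: potency is read from the fitted curve at half-maximal effect; % of control where 0% means no effect; nearly all actives have a fitted effect of over 45% in size; -100% = wells without RanGTP and RCC1; the record marks most hits as doubtful in a second field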
#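 Rango FRET biosensor (snurportin-1 IBB flanked by N-terminal EYFP and C-terminal CFP10) at 0.1 uM, with 0.25 uM importin beta in PBS, 1mM DTT, 0.02% Tween-20, 0.1% BSA. 0.6 uM Ran, 2mM GTP and 0.2 uM RCC1 were then added for 45 min at room temperature. Inhibition read as loss of FRET rise.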
# miR-21 FLuc – raises the signal of a miR-21 reporter. AID 2288. Potency, µM (highest dose often 38.3 µM), inactives show at the highest dose reporter change, positive = more light. 340,000 tested, under 10 active. HeLa miR-21 FLuc reporter, luciferase, 48 h; active = well fitted rising curve with a large enough effect; inconclusive = small, poorly fitted or top-dose-only effect; inactive = no such curve, though single readings can be large or run the other way;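 also: % of control where 0% means no effect; miR-21 action dims this reporter so a rising signal means less miR-21 action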
#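 HeLa cells stably expressing CMV-driven firefly luciferase with a downstream miR-21 binding sequence, endogenously expressing miR-21, were treated with titrations (up to about 40uM final) for 48 hours at 37 degree Celsius. Luciferase luminescence was read after lysis.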
# GLA inh pH 4.5 – inhibitors of human alpha-galactosidase A at pH 4.5. purified enzyme, 4-MU-alpha-Gal fluorescence, pH 4.5. activity change, negative = inhibition, % at 105 µM. P06280. 230,000 tested, under 10 active; inconclusive = small, poorly fitted or top-dose-only inhibition, or a rising curve; inactive = flat fitted curve, though single readings scatter; no compound was filed as active;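 also: 0% = full activity with enzyme and -100% = basal without enzyme; dose as in the result columns while the protocol names 77 µM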
# Numbers without * were called inactive; ? = inconclusive; . = not tested or not shown; & = joins results of further samples. This is a subset; count on the stated rates, not on these rows.
GLA inh pH 4.5	miR-21 FLuc	Rango-impB inh	Rango dissoc inh	SMILES
.	17%	-1.0%	-16%	COc1cc(NC(=O)c2ccccc2)c(OC)cc1NC(=O)CSc1[nH]c(=O)cc(C)c1C#N
-19	1%	-4.0%	19%	COc1ccc(-c2cc(C(=O)Nc3ccc(S(=O)(=O)Nc4onc(C)c4C)cc3)c3ccccc3n2)cc1OC
.	.	4.2%	-14%	COc1ccc2oc(C(=O)N(Cc3ccco3)Cc3cccs3)c(C)c2c1
.	-7%	6.2%	14%	O=C1C2CCCN2C(=O)N1CCCN1CCN(c2cccc(Br)c2)CC1 (configuration not stated)
4	-4%	3.1%	2%	CCOC(=O)c1nn(-c2c(C)n(C)n(-c3ccccc3)c2=O)cc1O
0	-16%	-0.8%	20%	Cc1ccc(/C=N/N=C2\SCC(=O)N2CC2CC2)cc1
-2	-33%	-5.6%	1%	COc1cccc2cc(/C(C)=N/NC(=O)c3ccco3)oc12
-8	2%	?	-13%	CC(C)n1cc(/C=C2/SC(=O)N(CC(=O)N3CCCC3)C2=O)c2ccccc21
-2	-9%	?	-19%	O=C(O)CSc1c(-c2cccs2)[nH]c2ccccc12
.	-3%	1.5%	-10%	CCc1c(C)nc(SCc2cccnc2)[nH]c1=O
-7	-6%	-1.2%	-1%	COCn1c(=O)c2c(nc(SC3=NCCS3)n2Cc2ccccc2C)n(COC)c1=O
3	-11%	0.7%	7%	O=C(N/N=C/C1C(c2ccccc2)C1(Cl)Cl)c1cccc(Br)c1 (configuration not stated)
.	.	1.1%	9%	O=C(NCc1nnnn1-c1ccc(F)c(F)c1)c1cc2ccccc2o1
-2	-5%	-3.7%	-3%	O=C(O)CN(Cc1ccccc1)S(=O)(=O)c1ccc(F)cc1
-1	-60%	-2.1%	-18%	Cc1cnc(C(=O)Nc2ccc(C(C)C)cc2)cn1
-3	-12%	2.6%	?	COc1ccc(/C=C/C(=O)Nc2sc(Cc3ccccc3)c(C)c2C(N)=O)cc1
.	-4%	3.2%	-17%	Cc1ccccc1-c1coc2cc(O)ccc2c1=O
.	-3%	0.1%	-5%	CCCc1cc(=O)oc2cc(OCC(=O)NCCCn3ccnc3)ccc12
-5	-3%	-2.0%	10%	CC(=O)OCCN(Cc1ccccc1)Cc1ccc2c(c1)OCO2
4	0%	0.3%	-8%	O=C(NCC1CC1)c1ccc(Oc2cc(Cl)cc(Cl)c2)o1
1	-2%	-0.5%	13%	OCCC1CN(Cc2ccc3c(c2)CCO3)CCN1Cc1ccc(F)cc1 (configuration not stated)
3	-8%	3.4%	2%	O=C(NCCCN1CCCCCC1)c1ccc(CS(=O)(=O)Cc2ccccc2F)o1
.	.	-5.2%	?	Cc1ccc(S(=O)(=O)N2CCCCC2)cc1NC(=O)CNc1ccc(C(F)(F)F)cc1
-2&1&3	-6%	3.9%	-10%	COc1ccc(C(Cl)=C(c2ccc(OC)cc2)c2ccc(OC)cc2)cc1
-23	-3%	-2.9%	1%	CS(=O)(=O)N1CCC(C(=O)NCCc2ccccc2)CC1

# Later entries.
GLA inh pH 4.5	miR-21 FLuc	Rango-impB inh	Rango dissoc inh	SMILES
-2	-14%	1.0%	-6%	Cc1ccccc1Cn1ccc(NC(=O)c2nc3ncccn3n2)n1
0	-1%	7.4%	-7%	CCC(=O)Nc1ccc(S(=O)(=O)NCc2ccco2)cc1
3	22%	?	-10%	CCOC(=O)N1CCN(c2c(NCc3ccc(Cl)cc3)c(=O)c2=O)CC1
.	.	-2.5%	-6%	CC(=O)N1CCN(C(=O)c2cc(S(=O)(=O)N(C)Cc3ccccc3)ccc2Cl)CC1
.	.	2.0%	-3%	Cc1ccc(S(=O)(=O)N2CCCC2CNC(=O)C(=O)NCc2ccccn2)cc1 (configuration not stated)
.	-1%	-0.7%	22%	Cc1cccc(N(C(=O)c2csnn2)C(C(=O)NC2CCCCC2)c2ccccn2)c1C (configuration not stated)
8	-3%	3.6%	-21%	CCCCc1c(C)nc2ccc(OC)cc2c1SCCC(=O)O
-6	-6%	4.6%	0%	CCOc1ccc(Br)cc1C(=O)N/N=C/c1ccc([N+](=O)[O-])cc1
.	.	0.4%	-9%	O=C(OCc1ccc([N+](=O)[O-])cc1)c1cc2ccccc2oc1=O
.	3%	4.2%	-10%	CC1CCCN(S(=O)(=O)c2ccc(S(=O)(=O)N3CCCC3)cc2)C1 (configuration not stated)
4	20%	0.0%	3%	CCOc1ccccc1Oc1cn[nH]c1-c1ccc(OC)cc1O
-7	-45%	0.0%	-23%	CCC(=O)Nc1cccc(-c2cn3cccc(C)c3n2)c1
-1	1%	3.8%	9%	Cn1c(N)c(N=O)c(=O)n(C)c1=O
.	.	4.8%	-1%	COC(=O)[C@]1(C)N[C@H](CN(C)S(=O)(=O)c2ccc(-c3ccccc3)cc2)[C@@H]2C(=O)N(Cc3ccccc3)C(=O)[C@@H]21
-14	11%	2.3%	-4%	CCc1ccc(NC(=O)COn2nnc3ccc(S(=O)(=O)N(C)C)cc32)cc1
1	2%	-3.5%	-9%	N#Cc1cnn(-c2ccc(F)cc2)c1N
1	-5%	?	-1%	Cc1nn(CCN)c(C)c1Cl
-5	-5%	1.1%	4%	CCOc1ccc(S(=O)(=O)N2CCN(S(=O)(=O)c3ccc(OCC)cc3)C(C)C2)cc1 (configuration not stated)
.	.	0.5%	-10%	Cc1cccc(NC(=O)c2ccc(NS(=O)(=O)c3cccc4cccnc34)cc2)c1
.	1%	-0.4%	-3%	COC(=O)c1ccc(CNC(=O)Cn2nnnc2CN(C)C(C)C)cc1
.	.	0.2%	8%	CCCCn1nc(C(=O)NCc2ccccc2CN2CCCC2)c2ccccc2c1=O
-1	0%	6.3%	1%	COc1ccc(C(=O)O)cc1F
.	.	-1.1%	-2%	COc1ccc(Cl)cc1NS(=O)(=O)c1cccc(C(=O)NCC(C)(C)N2CCOCC2)c1
.	4%	-1.4%	6%	COc1ccc(-c2cc(=O)oc3cc(OC(C)C(=O)NCCCn4ccnc4)ccc23)cc1 (configuration not stated)
.	0%	-3.3%	41%	C[C@H]1CN=C(Nc2ccccc2)N1CC1CCCCCC1

# Two consecutive records from above, for reference:
GLA inh pH 4.5	miR-21 FLuc	Rango-impB inh	Rango dissoc inh	SMILES
.	4%	-1.4%	6%	COc1ccc(-c2cc(=O)oc3cc(OC(C)C(=O)NCCCn4ccnc4)ccc23)cc1 (configuration not stated)
.	0%	-3.3%	41%	C[C@H]1CN=C(Nc2ccccc2)N1CC1CCCCCC1

# Continuation:
GLA inh pH 4.5	miR-21 FLuc	Rango-impB inh	Rango dissoc inh	SMILES
7	8%	-5.4%	-4%	CC(C(=O)Nc1ccc(C#N)cc1)N(C)CC(=O)Nc1cccc(F)c1 (configuration not stated)
.	-3%	0.9%	9%	CC1CCN(S(=O)(=O)c2ccc3[nH]c(=O)[nH]c3c2)CC1
4	-18%	-5.1%	3%	CCN(CC)c1ccc(NC(=O)OC)cc1
.	-1%	-4.1%	5%	OCc1nc2ccccc2n1Cc1ccc(Cl)cc1
.	.	-3.6%	-10%	Cc1ccc(C(=O)NCC(=O)NCC(c2cccs2)N2CCOCC2)cc1C (configuration not stated)
.	2%	-1.3%	?	O=C(C1CCCN(S(=O)(=O)c2ccc(F)cc2)C1)N1CCCCC1 (configuration not stated)
.	-64%	-0.6%	-1%	COc1ccccc1C1N=C(c2ccccc2C)NO1 (configuration not stated)
.	.	-1.5%	18%	COc1ccccc1CNC(=O)COC(=O)c1ccc(N2CCCC2=O)cc1
-5	8%	5.4%	16%	O=C(c1ccccc1)c1ccc2nc(Nc3ccccc3)c3nncn3c2c1
1	-9%	4.1%	-3%	CCOc1c2ccc(C(=O)NCCc3ccc(C)cc3)cc2nn1CC
6	-3%	0.6%	10%	Cc1ccc2nc(-c3ccncc3)cc(C(=O)NCCc3ccc(F)cc3)c2c1
12	-7%	1.6%	-8%	Cc1nnc(NCCc2ccccc2)[nH]c1=O
1	1%	-0.7%	-7%	Cc1cccc[n+]1CC(=O)Nc1cccc([N+](=O)[O-])c1
.	.	1.1%	-1%	Cc1cccc(C)c1NC(=O)CSc1ncnc2[nH]ncc12
-13	-5%	2.3%	0%	CCOc1ccc(C2=C(C=Nc3c(C)n(C)n(-c4ccccc4)c3=O)C(c3ccc(F)cc3)c3ccccc3O2)cc1 (configuration not stated)
-3	-5%	-1.1%	2%	S=C(Nc1ccc(Nc2ccccc2)cc1)N1CCN(c2ncccn2)CC1
11&-1	-4%	.	.	CC1(OC(=O)C2CCCC2)C(=O)C=C2C=C(c3ccsc3)N(CCN3CCOCC3)C=C2C1=O (configuration not stated)
-7	1%	-4.0%	8%	COC(=O)c1ccc(CN2C(=O)NC3(CCC(C)CC3)C2=O)o1 (configuration not stated)
-3	-8%	?	-15%	Cc1ccccc1C1C(C#N)=C2N=C(N)c3c(sc4c3CCCCC4)N2C2=C1C(=O)CC(C)(C)C2 (configuration not stated)
.	.	?	2%	O=C1C=C(c2cccc(Cl)c2)C[C@@H](c2ccc(F)cc2)C1
.	.	1.4%	3%	Cc1ccc(S(=O)(=O)N2CCOCC2)cc1NC(=O)c1cc([N+](=O)[O-])ccc1N1CCOCC1
-9	-14%	5.9%	-8%	CCN=C(Nc1ccc2c(c1)OCO2)SC1CC(=O)N(c2ccccc2F)C1=O (configuration not stated)
.	-11%	-0.5%	7%	CCCc1n[nH]c(=O)c2c1nnn2Cc1ccccc1F
.	.	-1.8%	-1%	NC(=O)c1c(NC(=O)c2ccc(N3C(=O)CCC3=O)cc2)sc2c1CCCC2
.	-2%	-2.3%	-8%	O=C(CCCN1C(=O)c2cccnc2Oc2ccc(Cl)cc21)N1CCCCC1

# Going on with the list:
GLA inh pH 4.5	miR-21 FLuc	Rango-impB inh	Rango dissoc inh	SMILES
-10	-25%	-0.7%	-8%	Cc1cccc(Nc2cc(C)c3c(O)cccc3n2)c1C
.	-1%	-5.9%	-5%	COc1ccc(NC(=O)NCCCCc2ccccc2)cc1OC
.	.	-2.8%	15%	CCN(CC(=O)Nc1cc(Cl)ccc1C)C(=O)CCOc1ccc(C)cc1
-4	15%	5.4%	3%	Cc1nn(Cc2ccccc2)c(C)c1C(=O)OCC(=O)c1cc(C)n(CC(F)(F)F)c1C
.	-1%	3.4%	11%	Cc1cccc(NC(=O)CCCN2C(=O)C3CC=CCC3C2=O)c1 (configuration not stated)
.	0%	0.5%	-6%	CCc1cc(C(=O)Nc2ncccc2O)sc1C
6	2%	0.4%	-7%	Cc1nc2ccc(Nc3ccncc3)cc2s1
-3	-2%	3.0%	16%	CC1CCN(c2ccc(N3C(=O)C4CCCCC4C3=O)cc2[N+](=O)[O-])CC1 (configuration not stated)
.	.	-2.1%	26%	NC(=O)C1CCN(c2oc(-c3cccs3)nc2S(=O)(=O)c2ccc(Br)cc2)CC1
-11	-1%	-2.4%	28%	O=c1[nH]n(-c2ccc(F)cc2)c2ncccc12
.	1%	5.5%	1%	CC(=O)N(c1ccc(N(C(C)=O)S(=O)(=O)c2ccccc2)cc1)S(=O)(=O)c1ccccc1

# 5 compounds drawn at random from those above, as already listed:
GLA inh pH 4.5	miR-21 FLuc	Rango-impB inh	Rango dissoc inh	SMILES
.	.	0.2%	8%	CCCCn1nc(C(=O)NCc2ccccc2CN2CCCC2)c2ccccc2c1=O
.	.	-2.5%	-6%	CC(=O)N1CCN(C(=O)c2cc(S(=O)(=O)N(C)Cc3ccccc3)ccc2Cl)CC1
-3	-2%	3.0%	16%	CC1CCN(c2ccc(N3C(=O)C4CCCCC4C3=O)cc2[N+](=O)[O-])CC1 (configuration not stated)
.	.	1.4%	3%	Cc1ccc(S(=O)(=O)N2CCOCC2)cc1NC(=O)c1cc([N+](=O)[O-])ccc1N1CCOCC1
.	-2%	-2.3%	-8%	O=C(CCCN1C(=O)c2cccnc2Oc2ccc(Cl)cc21)N1CCCCC1
